# Biofilm kill mix = mixture kills Candida albicans biofilm cells | C. albicans biofilm persisters + clotrimazole, fluorescence viability; primary screen in compound mixtures of four per well | 120,000 tested, 0.02% active | inhibition, % at 7.6 µM;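 active means inhibition above 30.3% in the primary screen of four-compound pools, then above 30% when the compound was retested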;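 further: compounds exposed to preformed 24 h biofilms for 48 h; the number belongs to the whole pool; some results filed as inactive read as strong as hits; inactives centre near 12; 0% = biofilm with clotrimazole alone and 100% = kill control; retested singly at about 60 µM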
#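 Incubation: 24 h biofilm formation, then 48 h compound exposure, 37 °C | Material: C. albicans biofilms | Buffer or medium: RPMI/MOPS medium, pH 7.0 | Measured by: 2-h Alamar Blue fluorescence, 535/590 nm excitation/emission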
# * marks the source's active call; other numbers are inactive results. The list is partial; the hit share may differ from the screen's.
# Start of the listing, in advance:
SMILES,Biofilm kill mix
Cc1ccc(NC(=O)CCn2cnc3cc(C)c(C)cc32)cc1,15
COC(=O)c1cc(C(=O)NCc2ccccc2)c(=O)[nH]c1C,5
Cc1cccc(C)c1NC(=O)CNC(=O)CCC(=O)c1cccs1,19
CCOC(=O)CC(=O)CSc1nccc(-c2cccnc2)n1,11
CS(=O)(=O)N(CC(=O)Nc1cccc([N+](=O)[O-])c1)c1cccc(F)c1,12
COc1cccc(N2CCN(CC(=O)Nc3ccc(SC(F)F)cc3)CC2)c1,15
Clc1cccc(N/N=C/c2ccc(N3CCOCC3)s2)c1,9
CCOC(CCn1c(SCc2ccc([N+](=O)[O-])cc2)nc2ccccc2c1=O)OCC,8
NCc1oc(-c2ccccc2)cc1C(=O)O,13
N#CCC(=O)N/N=C/c1cc(-c2ccccc2)n(-c2ccc(Cl)cc2)c1-c1ccccc1,7
O=C(NCC(c1cccs1)N1CCOCC1)c1cccc([N+](=O)[O-])c1 (configuration not stated),7
CCOC(=O)c1cc(-c2ccccc2)sc1NC(=O)c1ccc(OC)c(OC)c1,17
CC(=O)c1cccc(NC(=O)c2csc3c2CCCCC3)c1,14
COc1ccccc1/C=C/C(=O)NCC(=O)n1nc(C)cc1C,18
C=C(C)Cn1c(SCC(=O)N/N=C/c2cccc(O)c2)nc2ccccc2c1=O,14
Nc1ccc(C(=O)Oc2ccc([N+](=O)[O-])cc2)cc1,15
O=C(Nc1nc(-c2ccc(Cl)cc2)cs1)NC1CCCCC1,5
S=C(NCCc1ccccc1)NCc1cccs1,-4
CC1CCCC(C)N1/N=C/c1ccccc1OC(F)F (configuration not stated),6

# The list itself (from the top)
SMILES,Biofilm kill mix
Cc1ccc(NC(=O)CCn2cnc3cc(C)c(C)cc32)cc1,15
COC(=O)c1cc(C(=O)NCc2ccccc2)c(=O)[nH]c1C,5
Cc1cccc(C)c1NC(=O)CNC(=O)CCC(=O)c1cccs1,19
CCOC(=O)CC(=O)CSc1nccc(-c2cccnc2)n1,11
CS(=O)(=O)N(CC(=O)Nc1cccc([N+](=O)[O-])c1)c1cccc(F)c1,12
COc1cccc(N2CCN(CC(=O)Nc3ccc(SC(F)F)cc3)CC2)c1,15
Clc1cccc(N/N=C/c2ccc(N3CCOCC3)s2)c1,9
CCOC(CCn1c(SCc2ccc([N+](=O)[O-])cc2)nc2ccccc2c1=O)OCC,8
NCc1oc(-c2ccccc2)cc1C(=O)O,13
N#CCC(=O)N/N=C/c1cc(-c2ccccc2)n(-c2ccc(Cl)cc2)c1-c1ccccc1,7
O=C(NCC(c1cccs1)N1CCOCC1)c1cccc([N+](=O)[O-])c1 (configuration not stated),7
CCOC(=O)c1cc(-c2ccccc2)sc1NC(=O)c1ccc(OC)c(OC)c1,17
CC(=O)c1cccc(NC(=O)c2csc3c2CCCCC3)c1,14
COc1ccccc1/C=C/C(=O)NCC(=O)n1nc(C)cc1C,18
C=C(C)Cn1c(SCC(=O)N/N=C/c2cccc(O)c2)nc2ccccc2c1=O,14
Nc1ccc(C(=O)Oc2ccc([N+](=O)[O-])cc2)cc1,15
O=C(Nc1nc(-c2ccc(Cl)cc2)cs1)NC1CCCCC1,5
S=C(NCCc1ccccc1)NCc1cccs1,-4
CC1CCCC(C)N1/N=C/c1ccccc1OC(F)F (configuration not stated),6
C=CCN1C(=O)/C(=C/c2ccc(OC(C)=O)c(OCC)c2[N+](=O)[O-])SC1=S,4
COc1ccc(CN2CCN(Cc3ccon3)CC2CCO)c(C)c1C (configuration not stated),20
C=C(C)C1CC=C(C)/C(=N\NC(=O)CCc2ccccc2)C1 (configuration not stated),9
COC(=O)CSc1nc(N2CCOCC2)c2c(c1C#N)CCCC2,22
Cc1ccccc1Nc1nnc(SCC(=O)N(C)C2CCS(=O)(=O)C2)s1 (configuration not stated),10
CCOC(=O)Nc1ccc2c(c1)N(C(=O)N(CC)CC)c1ccccc1CC2,15

# Reprinted at random: two compounds from above.
SMILES,Biofilm kill mix
O=C(Nc1nc(-c2ccc(Cl)cc2)cs1)NC1CCCCC1,5
Nc1ccc(C(=O)Oc2ccc([N+](=O)[O-])cc2)cc1,15

# Next section.
SMILES,Biofilm kill mix
Cc1ccc2oc(=O)cc(/C=C/c3ccccc3)c2c1,7
NNC(=O)C(Cc1ccccc1)NC(=O)OCc1ccccc1 (configuration not stated),13
Cn1cccc1/C=N/NC(=O)c1ccc(OC(F)(F)C(F)F)cc1,10
COCCOC(=O)c1c(NC(=O)CN2c3ccccc3CC2C)sc(C(N)=O)c1C (configuration not stated),7
Cc1ccc(Oc2ccc(C(F)(F)F)cc2[N+](=O)[O-])c([N+](=O)[O-])n1,24
CCOC(=O)c1ccccc1NC(=O)Cc1sc(-c2cccnc2)nc1-c1ccc(C)cc1,7
Cn1c2ccccc2c(=O)c2c(=O)n(-c3ccccc3)c(-c3ccc(C(C)(C)C)cc3)nc21,8
CC(=O)NC1=NN(C(C)=O)C(C)(c2ccc(C)cc2)S1 (configuration not stated),13
CCOc1ccc(N2C(=O)c3ccc(C(=O)OCC(=O)N(CC)C4CCS(=O)(=O)C4)cc3C2=O)cc1 (configuration not stated),3
Cc1cc(Cl)ccc1OCC(=O)N[C@@H](Cc1ccccc1)c1nc2ccccc2[nH]1,5
CCOc1ccccc1OCCCC(=O)Nc1nc2ccccc2[nH]1,10
COCCNC(=O)c1ccc(C)cc1C,19
CN1CCCN(C(=O)CNC(=O)Cc2ccccc2)CC1,-7
Cc1nc(-c2ccccc2)nc(Cl)c1Cl,16
O=c1[nH]c(/C(Cl)=C/c2cccc(F)c2)nc2cc(C(F)(F)F)ccc12,13
O=C(c1ccco1)N1CCN(c2ncnc3c2nnn3Cc2ccccc2Cl)CC1,3
CC1(C)CC2CC(C)(CN2S(=O)(=O)c2ccc(C(=O)Nc3cc(S(=O)(=O)N4CCOCC4)ccc3Cl)cc2)C1 (configuration not stated),5
COc1ccc(/C(C)=N/NC(=O)CNC(=O)Cc2ccccc2)c(OC)c1,11
CCc1ccc(N2C(=O)c3cc(N4CCOCC4)c([N+](=O)[O-])cc3C2=O)cc1,14
CC(O)C1C(=O)OC2(C)CC(C)(C)NC(=S)N12 (configuration not stated),-4
O=S1(=O)CC/C(=N\Nc2ccccc2)c2ccsc21,13
C/C(=N/NS(=O)(=O)c1ccc(C)cc1)c1ccc(NC(=O)C(F)(F)F)cc1,5
CN(C)S(=O)(=O)c1cccc(NC(=O)COC(=O)c2cn(-c3ccccc3)nc2-c2ccccc2)c1,-6
O=C(/C=C/c1cccc([N+](=O)[O-])c1)N1CCN(c2ccccc2F)CC1,19
O=C(c1ccc(Cl)cc1)N1CCc2c([nH]c3ccccc23)C1C(F)(F)F (configuration not stated),14
SMILES,Biofilm kill mix
CC(Cl)C(=O)c1ccc2c(c1)CCN2C(=O)C1CC1 (configuration not stated),17
C[C@@H](Oc1ccccc1)c1nnn(Cc2ccccc2)c1-c1c([C@@H](C)Oc2ccccc2)nnn1Cc1ccccc1,15
CCN1CCN(C(=O)/C=C/c2c(F)cccc2Cl)CC1,7
Cc1ccc(-c2c(C(=O)NNC(=S)NCC3CCCO3)csc2C)cc1 (configuration not stated),-7
Cc1c(Cl)c([N+](=O)[O-])nn1Cc1ccc(C(=O)Nc2ccc(Cl)cn2)o1,11
O=C(NCc1ccc(F)cc1)C(c1ccccc1)N(CC1CCCO1)C(=O)Cn1nnc2ccccc21 (configuration not stated),15
CC(=O)OCC(=O)Nc1ccccc1C,21
S=C(NCC1CCCO1)Nc1ccc(Cl)c(Cl)c1 (configuration not stated),15
CCOC(=O)c1sc(NC(=O)CCN2CCCCCC2)c(C(=O)OCC)c1C,11
c1ccc2c(c1)cnc1ccccc12,1
Cc1ccc(Cl)cc1NC(=S)NN,8
CCO[C@@H]1OC(C(=O)N2CCN(Cc3ccccc3)CC2)=C[C@H](c2csc3ccccc23)[C@H]1CCCO,16
Cc1nc(SCc2ccccc2)c2oc3ccccc3c2n1,9
COc1cccc(NC(=O)COC(=O)c2nc(Cl)ccc2Cl)c1,8
O=S(=O)(c1cnc(Cl)c(Br)c1)N1CCN(c2ncccn2)CC1,9
O=C(c1ccc2c3n(nc2c1)-c1ccccc1CO3)N1CCOCC1,13
COc1ccc(-n2nc(C)c3sc(C)nc3c2=O)cc1,13
O=C(NCc1ccccc1)C(c1ccco1)N(C(=O)c1ccccn1)c1ccc(F)cc1 (configuration not stated),11
COc1ccc(C(C(=O)NC2CCCC2)N(C(=O)c2ccoc2C)c2ccc(C)c(C)c2)cc1 (configuration not stated),9
CCc1nnc(NC(=O)c2sc3nc4c(cc3c2N)CCCCC4)s1,13
CC[C@@H](C)[C@@H](C(=O)N1CCN(C(=O)OC(C)(C)C)CC1)n1cc(CCC(=O)O)nn1,4
Cc1cc(NC(=O)c2ccc(-c3ccccc3F)o2)no1,20
Cc1[nH]n(-c2ccccc2)c(=O)c1/C=N\NC(=O)C1COc2ccccc2O1 (configuration not stated),19
CCNc1ccc(C(=O)NN=C2CCCC2)cc1[N+](=O)[O-],13
CCC(C(=O)OC)(C(=O)OC)c1ccc([N+](=O)[O-])cc1,10
SMILES,Biofilm kill mix
S=c1[nH]nc(-c2ccc3ccccc3n2)n1-c1ccc2c(c1)OCCO2,19
CCOC(=O)C1CCN(C(=O)c2ccc3c(SCC(=O)O)c4c(nc3c2)CCCC4)CC1,4
COc1ccc2c(C)cc(SCC(=O)Nc3ccc(Cl)cn3)nc2c1,9
Cc1ccc(-c2n[nH]c(=S)n2-c2ccccc2)cc1,3
Cc1cccc2[nH]c(SCC(=O)N3CCOCC3)nc12,11
CC(=O)c1ccccc1NC(=O)COC(=O)c1ccccc1NC(=O)c1ccccc1,22
CCc1cccc(CC)c1NC(=O)c1ccccc1,11
COc1ccc(NC(=O)COC(=O)CCCN2C(=O)c3ccccc3C2=O)cc1Cl,9
COC(C(=O)N/N=C(\C)CC(=O)Nc1ccc(Cl)cc1C)c1ccccc1 (configuration not stated),19
Cc1ccc(NC(=O)CSc2nnc(CCC(=O)O)c(=O)[nH]2)cc1,21
COc1ccc(C2C(CC(=O)O)=C(Nc3ccccc3)C(=O)N2c2ccccc2)cc1 (configuration not stated),15
CC(C)(C)c1nnc(N/N=C/c2ccccc2)n(N)c1=O,18
CNS(=O)(=O)c1ccc2c(c1)NC(=O)C1CCCN21 (configuration not stated),19
CC(C(=O)Nc1ccc(O)cc1)c1cccc(C(=O)c2ccccc2)c1 (configuration not stated),10
CCOC(=O)/C(C#N)=C\c1ccc(O)c(OC)c1,20
O=C1C(Cl)=C(N2CCCCC2)C(=O)N1Cc1ccccc1,9
CCOc1ccccc1NC(=O)CSc1ccc([N+](=O)[O-])cc1,3
CCCc1nn(C)c(C(=O)Nc2ccccc2)c1Cl,15
CCN(CC)c1nc2ccccc2[nH]c1=O,17
COC(=O)c1ccccc1NC(=O)CN(c1ccccc1)S(=O)(=O)N(C)C,-3
S=C(Nc1ccc(Br)cc1)NC1CCCC1,22
COc1cc(SSc2cc(OC)cc([N+](=O)[O-])c2N)c(N)c([N+](=O)[O-])c1,14
Cc1ccc(C2(O)CN(c3ccccc3)C3=[N+]2CCS3)cc1 (configuration not stated),15
O=C(NC1CCCCC1)c1c2c(nc3ccccc13)CCC2,17
COc1ccc(/C=N/NC(=O)c2cc(C34CC5CC(CC(C5)C3)C4)[nH]n2)cc1OC,14
SMILES,Biofilm kill mix
CCOC(=O)C1(CCCc2ccccc2)CCN(C(=O)c2cc(C)nc(C)n2)CC1,23
CCCCCn1cnc2sc(CC)cc2c1=O,15
CCCCN1C(=S)NC[C@@H]1C(C)CC (some centres not stated),17
Cc1cc2c(NC(=O)Nc3ccc(C(C)(C)C)cc3)cccc2nn1,16
COc1ccc(N2C(=S)NC(C)(C)CC2(C)c2ccc(OC(C)=O)cc2OC(C)=O)cc1 (configuration not stated),12
COc1ccccc1NC(=S)N1CCN(Cc2ccc3c(c2)OCO3)CC1,7
O=[N+]([O-])c1cc(CN2CCC(O)CC2)ccc1Cl,6
Cc1nnc(SC(C(=O)Nc2cc(Cl)cc(Cl)c2)c2ccccc2)[nH]c1=O (configuration not stated),15
CCN(CC)c1ccc(/C=C(\C#N)c2nc(-c3cccs3)c(NC(C)=O)s2)cc1,5
COc1cccc(/C=C2/NC(=O)NC2=O)c1OCC(=O)Nc1ccccc1,17
CC(=O)Nc1ccc(S(=O)(=O)NCC2CCC(C(=O)NC(C)c3ccccc3)CC2)cc1 (configuration not stated),12
O=[N+]([O-])c1ccc(/C=N/Nc2ccc3ccccc3c2)o1,12
CC(=O)N/C(=C\c1ccccc1)C(=O)OCC(=O)NC(C)C12CC3CC(CC(C3)C1)C2 (configuration not stated),13
Cc1cccc(COCC(Cc2ccccc2)N2CCN(C(=O)c3ccc(Cl)c(Cl)c3)CCC2=O)c1 (configuration not stated),18
COC(CSc1ncnc2c1oc1nc3c(cc12)COC(C)(C)C3)OC,7
O=C(CSc1nnc(-c2cccc(F)c2)o1)Nc1nncs1,-8
Cc1cc(C)c2cc(C(=O)N3CCC(C(=O)c4ccc(F)cc4)CC3)[nH]c2c1,19
CCOC(=O)N1CCC(N(CCN(C)C)C(=S)Nc2ccccc2OCC)CC1,10
CC1(C)CC(=O)C(C=NCCN2CCN(CC(=O)Nc3ccc(Cl)cc3)CC2)=C(O)C1,6
CC(C)Cn1c(N2CCN(CC(=O)Nc3ccc(Cl)cc3)CC2)nc2ccccc21,2
CCOc1ccc2c(c1)S/C(=C\c1cccs1)C(=O)N2,19
O=C(O)C1Cc2ccccc2CN1C(=O)CCl (configuration not stated),9
Cc1cc2cc(CN(Cc3cccs3)C(c3nnnn3C(C)(C)C)C(C)C)c3nnnn3c2cc1C (configuration not stated),-5
O=C(Nc1ccc(Cl)cc1)Nc1cc(S(=O)(=O)N2CCOCC2)ccc1N1CCCC1,8
CC[C@H](C)[C@H](NC(N)=O)C(=O)OCC(=O)NCc1ccc(Cl)cc1,10
O=C(NN1CCCCC1)c1cccc2ccccc12,12
Cc1ccc(C(=O)N/C(=C\c2ccc(-c3ccc(Cl)cc3)o2)C(=O)NCCCN(C)C)cc1,-13
CC(/C=C/c1ccco1)=N\NC(=O)COc1ccc(C)c(C)c1,16
